Screening data deposited in PubChem by several laboratories.
CSC inhib = blocks cancer stem cells; inhibition, % at 7.5 µM; cancer stem cell-like cells viability, luminescence; actives 1.1% (n = 300,000);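 active = mean at 75% or more and at least half the replicates too; inconclusive = mean and replicates disagree; tested in HMLE shEcad cells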;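 also: 0% = median of negative and 100% = median of positive control wells; the first replicate is given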
Yeast UUG start = yeast start codon fidelity modulation | S. cerevisiae UUG-firefly luciferase reporter, luminescence/redox ratio | activity score, % at 18.7 µM | actives 0.13% (n = 350,000) | AID 602363;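 active = replicate mean at a twofold rise or more, about +100% in these data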;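 also: firefly luciferase made from a UUG start codon reports start codon fidelity; reporter light over untreated wells divided by growth signal over untreated wells; some hits fall short of that in this replicate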
eIF4H inh = inhibitors of RNA binding by human eIF4H; eIF4H fluorescence polarization binding assay; actives 0.94% (n = 290,000); Q15056; inhibition, % at 35 µM;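 active = 50% or more with normal probe brightness, or confirmed in later tests; inconclusive = above 50% with abnormal brightness, or retests that disagree; inactive = below 50% or failed in later tests; about a fifth of its hits are not listed in these tables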;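 also: calls also rest on retests at 20 µM and on dose response follow-up; 0% = protein and probe with vehicle and 100% = probe without protein; strong numbers were not always called active; many hits fall short of the cut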
MT1-MMP act inh = inhibitors of human MT1-MMP activation. HT1080 RFP-PRO-GFP cells, GFP/RFP ratio fluorescence, overnight; percent of plate control window, DMSO zero. actives 0.061% (n = 360,000). GFP/RFP ratio change, % at 20 µM;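 active = GFP/RFP ratio change of at least 30% with cell ATP level not reduced by more than half and red fluorescence within 50% of control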; also: strong numbers were not always called active
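Test system: HT1080 RFP-PRO-GFP cells; Benchmarks: DMSO and RFP-L50D-GFP cell wells; Timing: cells overnight before dosing, compound overnight, 37 °C, 5% CO2; Compound: one 20 µM compound dose with 1% DMSO; Read-out: GFP/RFP fluorescence ratio.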
HIV Env fusion = inhibitors of HIV Env-mediated cell fusion; actives 1.1% (n = 360,000); AID 651610; inhibition, % at 12.3 µM; HeLa-JRFL Env/CEM21 cell fusion, luciferase;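 active = mean replicate inhibition score of at least 50 and every replicate individually at or above 50; inconclusive = only one of the two criteria met; inactive = mean below 50 and not all replicates reaching 50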;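 also: 0% = plate neutral controls and 100% = maraviroc near 300 nM; one replicate is shown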
Rce1 inhib = blocks yeast Ras-converting enzyme; calls only; Q03530; yeast membranes, quenched prenylated peptide cleavage fluorescence; actives 0.27% (n = 290,000); AID 2563;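 active = fall in fluorescence gain of 50% or more versus controls, with final raw signal at or below 3038400; inconclusive = same 50% fall but final raw signal above 3038400; inactive = fall in fluorescence gain under 50%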;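 also: plate controls were neutral control wells for no effect and wells lacking membranes for full effect; tested at 10 µM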
PABP polyA inh = PABP-poly(A) binding inhibition; PABP-poly(A) RNA binding, fluorescence polarization; inhibition, % at 35 µM; actives 1% (n = 290,000); AID 2014;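 active = 50% or more with normal probe brightness, or confirmed in later tests; inconclusive = above 50% with abnormal brightness, or retests that disagree; inactive = below 50% or failed in later tests; about a fifth of its hits are not listed in these tables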;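 also: calls also rest on retests at 20 µM and on dose response follow-up; controls were probe without protein and protein plus probe with vehicle; some compounds called inactive have numbers as strong as hits; many hits fall short of the cut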
Target sequence (P11940 whole entry, looked up): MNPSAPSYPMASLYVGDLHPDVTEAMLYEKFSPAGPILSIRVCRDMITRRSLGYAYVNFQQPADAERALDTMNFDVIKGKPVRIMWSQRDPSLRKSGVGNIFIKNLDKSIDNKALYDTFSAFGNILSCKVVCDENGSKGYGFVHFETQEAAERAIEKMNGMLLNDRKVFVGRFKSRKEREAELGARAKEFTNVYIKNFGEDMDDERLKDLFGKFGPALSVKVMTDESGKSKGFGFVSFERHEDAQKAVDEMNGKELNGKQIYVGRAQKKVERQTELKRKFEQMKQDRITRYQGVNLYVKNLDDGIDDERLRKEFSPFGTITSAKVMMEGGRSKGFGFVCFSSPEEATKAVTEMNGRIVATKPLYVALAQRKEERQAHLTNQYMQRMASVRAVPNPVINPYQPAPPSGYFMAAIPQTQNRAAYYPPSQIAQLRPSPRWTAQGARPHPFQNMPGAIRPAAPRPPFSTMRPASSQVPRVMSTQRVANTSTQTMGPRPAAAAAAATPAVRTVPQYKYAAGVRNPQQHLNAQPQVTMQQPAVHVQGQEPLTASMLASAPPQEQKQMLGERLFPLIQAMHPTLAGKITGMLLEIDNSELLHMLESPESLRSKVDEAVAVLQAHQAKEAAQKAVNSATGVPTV
eIF4H inh retest = also measured in eIF4H inh; calls as there; inhibition, %; compound at 20 µM; confirmation average;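 mean of two retest wells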
PABP polyA inh retest = further read-out of PABP polyA inh, marked with its call; inhibition, %; compound at 20 µM; confirmation repeats;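 mean of two retest wells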
MT1-MMP act inh RFP = second read-out of MT1-MMP act inh, no call of its own (marks repeat the call); RFP signal change, %; measured here: RFP expression control read;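 0 = vehicle wells; hits needed this value within 50% of zero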
Starred values were filed as active, the others as inactive; i = inactive; ? = inconclusive; nt = no result given.

SMILES	CSC inhib	Yeast UUG start	eIF4H inh	MT1-MMP act inh	MT1-MMP act inh RFP	HIV Env fusion	Rce1 inhib	PABP polyA inh	others
CCc1nnc(NC(=O)c2ccc(COc3ccc(C)cc3)o2)s1	8	-9	5	4	1	-10	i	-6
COc1ccc(CNCCC(c2ccccc2)C2CCOC(C)(C)C2)cc1 (stereo not drawn)	1	nt	3	-4	-8	-6	i	-12
CC1CCCN(CCOCCOc2ccc(Br)cc2Cl)C1 (stereo not drawn)	nt	-13	-4	-1	0	-17	i	0
Cc1ccc(NC(=S)N(CCCN2CCCC2)Cc2cccn2Cc2ccc(Cl)cc2)cc1Cl	144*	-30	-5	-1	-4	0	i	-2
O=c1[nH]c(-[n+]2ccccc2)c(/C=N/N=C(\[O-])c2ccccc2)s1	-4	nt	14	3	5	1	i	16
CCOc1ccccc1N1CCN(C(=O)c2cc(S(=O)(=O)N3CCCCC3)ccc2C)CC1	-8	-2	nt	6	-2	nt	nt	nt
COc1cccc(/C=N\NC(=O)c2cc(OCC(F)(F)F)ccc2OCC(F)(F)F)c1	-11	5	-8	-1	1	nt	i	-8
CN(C)c1ccc(/C=C(/NC(=O)c2ccccc2)C(=O)NCCCn2ccnc2)cc1	1	-28	?	5	8	nt	i	?
CCOc1ccc2[nH]c(=O)c(C(c3nnnn3Cc3ccco3)N3CCC(C)CC3)cc2c1 (stereo not drawn)	13	-6	50*	-6	6	nt	i	2.1*	eIF4H inh retest=97*;PABP polyA inh retest=102*
Cc1cc(C)cc(OCC(=O)O/N=C(\N)c2ccccc2Cl)c1	13	8	-5	2	-2	1	i	-7
CC(NC(=O)Cn1cc(C(F)(F)F)ccc1=O)c1ccc(F)cc1 (stereo not drawn)	-1	nt	-5	-2	0	7	i	11
Cc1cccc(Cn2c(Sc3nc(C)cs3)nc3c2c(=O)[nH]c(=O)n3C)c1	-6	-10	-1	-6	-3	-182	i	-4
CCOc1cc(S(=O)(=O)NCCc2ccccc2C)c(OCC)cc1-n1cnnn1	13	24	-9	7	0	19	i	-6
C/C(CC(=O)Nc1ccccn1)=N\NC(=O)Cc1cccc2ccccc12	-11	-26	-12	-1	-1	30	i	5
COC(=O)C(C)N(C#N)c1nc(NC(C)C)nc(SC)n1 (stereo not drawn)	-13	9	-1	-1	0	nt	i	8
O=C(Nc1cc(S(=O)(=O)Nc2ccccc2Cl)ccc1O)c1ccc(F)cc1F	26	-32	nt	11	-26	?	nt	nt
Cc1n[nH]c(C)c1CCN(C)C(=O)C1CCC(=O)N(CC2CCCCC2)C1 (stereo not drawn)	-3	-9	-18	3	2	-361	nt	-6
CNc1c(NS(=O)(=O)c2ccc(C(C)(C)C)cc2)c(=O)oc2ccccc12	-2	-13	-6	5	-2	-1	i	-2
C[C@H]1CNC(=O)c2c(C(=O)Nc3cccc(Cl)c3)ncn21	nt	-19	nt	4	-3	19	nt	nt
C/C(=N/NC(=O)COc1ccc(C(C)(C)C)cc1)c1ccc(N2CCOCC2)cc1	nt	-4	nt	4	-5	-32	nt	nt

Overlap with the part before: 2 compounds, followed by the next part.
SMILES	CSC inhib	Yeast UUG start	eIF4H inh	MT1-MMP act inh	MT1-MMP act inh RFP	HIV Env fusion	Rce1 inhib	PABP polyA inh	others
C[C@H]1CNC(=O)c2c(C(=O)Nc3cccc(Cl)c3)ncn21	nt	-19	nt	4	-3	19	nt	nt
C/C(=N/NC(=O)COc1ccc(C(C)(C)C)cc1)c1ccc(N2CCOCC2)cc1	nt	-4	nt	4	-5	-32	nt	nt
CCOc1ccc(CCNC(=O)CN(C)S(=O)(=O)c2ccc3c(c2)CCC(=O)N3)cc1OCC	-8	-9	-4	5	3	-9	i	1
Cc1csc(C(C)N(C)C(=O)c2ccc(OC3CCN(Cc4ccccn4)CC3)cc2)n1 (stereo not drawn)	10	-14	10	-1	-6	4	i	-7
COc1ccc(/C=N/NC(=O)c2cc(-c3ccccc3)nc3ccccc23)cc1O	2	-9	-6	7	2	18	i	0
c1ccc(-n2nnnc2SCc2cccc(CSc3nnnn3-c3ccccc3)n2)cc1	3	-14	1	2	-4	nt	nt	-1
C=CCOc1ccc(/C=C/C(=O)OCC(=O)NCc2cccs2)cc1	17	nt	nt	1	3	-23	i	nt
Cc1ccc2c(Cl)c(C(=O)Nc3cccnc3)sc2c1	-1	nt	2	-12	-13	-94	i	10
Cc1ccccc1N(CC(=O)NCCSc1ccccn1)S(=O)(=O)c1ccccc1	-2	nt	1	-2	1	3	i	10
CCN(CC)C(=O)C1CCCN(c2ncnc3c2cnn3-c2cccc(C)c2)C1 (stereo not drawn)	nt	12	0	4	-5	nt	i	-8
COc1cc(/C=N/N2CCCCC2)cc(OC)c1O	-18	3	1	12	12	15	i	13
CCc1nc2c(OCC(=O)C(C)(C)C)cccn2c1N(C)C(=O)Nc1ccccc1OC	nt	-1	nt	-7	4	-11	nt	nt
Cc1c(NC(=O)CSc2cccc3cccnc23)c(=O)n(-c2ccccc2)n1C	12	-8	-11	17	-1	-31	i	6
O=C(/C=C/c1ccccc1)Nc1cc(S(=O)(=O)N2CCOCC2)ccc1N1CCCC1	-7	nt	4	-1	0	-12	i	-6
CCCN1CCOC(CC(=O)Nc2ccc([N+](=O)[O-])cc2)C1=O (stereo not drawn)	-9	nt	-13	1	4	-3	i	-10
CC1(C)CC(=O)C2=C(C1)Nc1ccccc1NC2	-5	-24	30	-14	2	-39	i	16
CCN1C(=O)/C(=C\N2CCCCCC2)SC1=S	-9	nt	-5	1	-6	nt	i	-9
CCOc1ccc(NC(=O)CN(C)C(=O)c2ccc(N3CCOCC3)c([N+](=O)[O-])c2)cc1OCC	-10	1	-16	1	2	nt	i	-4
CCOc1ccc(/C=N/NC(=O)CNC(=O)c2ccc(S(=O)(=O)N3CCOCC3)cc2)cc1	-3	-11	1	-4	-3	20	i	-12
CCOC(=O)C1CCN(CC(=O)Nc2c(C(=O)OC)[nH]c3ccccc23)CC1	nt	nt	5	nt	nt	?	i	2
CC(C)(C)NC(=O)c1cc(F)c(F)cc1Cl	-6	26	13	-6	3	-11	i	19
COCCNCc1nc2sc(C)c(-c3ccccc3)c2c(=O)[nH]1	-10	-18	-4	1	0	2	i	9
COc1ccc(/C(C)=N/NS(=O)(=O)c2cc(C)ccc2C)c(OC)c1	2	-9	3	0	2	4	i	-14
C=CCNC(=S)/N=c1\sccn1C	-4	-5	4	-1	1	-71	i	15
Oc1csc(Cc2nc(-c3ccc4ccccc4c3)cs2)n1	8	-20	7	-4	3	-91	i	-5
O=C(Nc1ccc(O)c2c(=O)cc(-c3ccccc3Cl)oc12)c1cccc(Cl)c1	-2	-5	-5	3	5	-15	i	9
CN(C)c1ccc(NC2=C([N+](=O)[O-])CS(=O)(=O)C2)cc1	-18	nt	-7	-11	-3	nt	i	0
COC(=O)c1sc(S(=O)(=O)N2CCCCC2C)c(C(=O)OC)c1C (stereo not drawn)	-9	3	nt	0	1	nt	nt	nt
O=C(Cc1cccc2ccccc12)N/N=C/c1ccc(O)c([N+](=O)[O-])c1	-6	nt	-11	3	1	10	i	-3
Cc1ccc(S(=O)(=O)N2CC3(O)CN(C(=O)OC(C)C)N(C(=O)OC(C)C)CC3(OC(=O)NCc3ccco3)C2)cc1 (stereo not drawn)	nt	-3	nt	1	-1	-73	nt	nt
CC1(C)Cc2cccc(OCC(=O)N3CCN(c4cccc(Cl)c4)CC3)c2O1	34	-1	nt	3	0	39	i	nt
CCOCC(=O)N1CCN(c2ccccc2OC)CC1	9	-4	-6	1	1	-6	i	-12
Cc1ccc(C)c(Cn2c(=O)n(C)c(=O)c3sccc32)c1	-5	-5	-6	4	-5	-64	i	0
C=C[C@@H]1c2ccccc2N(S(=O)(=O)c2ccc(C)cc2)[C@H](c2ccccc2C(F)(F)F)C1(C#N)C#N	11	-21	nt	-3	-10	?	nt	nt
COc1ccc(N(CC(=O)O)S(=O)(=O)c2ccc(OC)c(OC)c2)cc1	-7	-8	-8	-2	1	-18	i	10
CN(C(=O)Cn1nnc(-c2ccc(F)cc2)n1)C1CCS(=O)(=O)C1 (stereo not drawn)	nt	-8	nt	1	4	-2	nt	nt
Cc1ccc2[nH]c(CN3CCN(C)C(CCO)C3)c(C)c2c1 (stereo not drawn)	16	-9	1	-4	0	-8	i	-2
COc1ccc(C(=O)NC2CC3CCCC(C2)N3Cc2ccccc2)c(OC)c1 (stereo not drawn)	-16	-3	-6	-2	-2	0	i	3
CCCS(=O)(=O)n1nc(-c2ccc(OC)cc2)cc1N	4	-21	-2	2	5	12	i	2
CNC(=O)c1ccc2c(c1)nnn2C	-9	nt	0	2	2	24	nt	17
Cc1ccc(C(=O)/C=C2/NC(=O)CS2)cc1	-17	nt	-1	-4	1	-350	i	4
O=C(NCc1cccc(Cl)c1)C1CCN(S(=O)(=O)c2ccc(F)cc2)CC1	13	-11	nt	2	-2	3	i	nt
CCN(CC)S(=O)(=O)c1ccc(NC(=O)c2ccc(NS(C)(=O)=O)cc2)cc1	-7	-5	1	5	-5	-43	i	-4
COc1cc(NC(=O)CN(c2ccc(C)cc2)S(=O)(=O)c2c(C)noc2C)cc(OC)c1	28	7	-11	-2	-8	24	i	5
CCC(=O)NC(=S)Nc1ccccc1C(=O)NC1CCCCC1	-13	nt	-5	1	7	-38	i	-4
COc1ccc(/C=N/NC(=O)c2c([N+](=O)[O-])c(C)nn2C)cc1	-5	nt	-1	-6	-3	nt	i	4
C=CCNc1nc(C(=O)OCC(=O)Nc2cc(S(C)(=O)=O)ccc2Cl)cs1	-16	nt	nt	-4	0	3	i	nt
COc1cccc(Nc2nc3ccc(OC)cc3s2)c1	29	nt	3	5	0	-102	i	4
COc1ccc2c(CC(=O)Nc3nnc(C4CC4)s3)coc2c1	10	-24	-1	-3	3	nt	i	-1
O=C(N/N=C/c1ccco1)c1ccccn1	-12	-19	-2	-3	2	-36	i	12
Cc1cc(NC(=O)c2cc(C(C)(C)C)oc2C)no1	-3	nt	-4	-1	-11	-10	i	4
COC(=O)c1ccc(COc2ccccc2/C=N/O)o1	5	-12	-11	6	7	7	i	-5
Nc1c2c(nc3sc4c(c13)CCCCC4)CCCCC2	71	-6	-11	11	-8	nt	i	-8
O=C(NCc1nnc2c(C(F)(F)F)cc(Cl)cn12)c1ccc(Br)o1	-14	nt	2	2	4	3	i	4
C/C=C/C=N/Nc1nc(-c2ccc([N+](=O)[O-])cc2)cs1	29	nt	-6	0	-3	-35	i	14
Cc1ccoc1C(=O)N1CCCC(CO)(Cc2ccc(F)cc2)C1 (stereo not drawn)	-12	7	-2	-1	-5	7	i	-1
CCn1cc(CN2CCC(n3nccc3NC(=O)c3ccccc3C)CC2)cn1	-10	-12	-4	1	5	-319	i	-14
O=C(CCNS(=O)(=O)c1ccccc1)N1CCC(Cc2ccccc2)CC1	-26	8	-2	-4	-7	10	i	44
Cc1nn(-c2ccccc2)c(Cl)c1/C=N/Nc1nc2ccccc2[nH]1	30	nt	0	6	1	-274	i	11
CCOC(=O)N1CCN(Cc2nc3c(c(=O)[nH]c(=O)n3C)n2Cc2ccccc2C)CC1	-12	5	-11	2	1	nt	i	-13
C[N+]1(CC(=O)Nc2ccccc2Cl)CCN(C(=O)c2cccs2)CC1	7	-15	-2	7	15	-14	i	7
CC1CN(C(C)C(=O)NC(c2ccccc2)c2ccccc2)CC(C)O1 (stereo not drawn)	-8	-8	-8	-4	0	-15	i	2

Compounds as they come. About 3% of those tested had a hit in this group.
